# Source: PubChem BioAssay
# GLA inh pH 4.5 = alpha-galactosidase A (human) inhibition, pH 4.5 | AID 1467 | 230,000 tested, under 10 active | P06280 | activity change, negative = inhibition, % at 105 µM | purified enzyme, 4-MU-alpha-Gal fluorescence, pH 4.5; inconclusive = small, poorly fitted or top-dose-only inhibition, or a rising curve; inactive = flat fitted curve, though single readings scatter; no compound was filed as active;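 also: 0% = full activity with enzyme and -100% = basal without enzyme; dose as in the result columns while the protocol names 77 µM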
# Target sequence (P06280 whole entry, looked up): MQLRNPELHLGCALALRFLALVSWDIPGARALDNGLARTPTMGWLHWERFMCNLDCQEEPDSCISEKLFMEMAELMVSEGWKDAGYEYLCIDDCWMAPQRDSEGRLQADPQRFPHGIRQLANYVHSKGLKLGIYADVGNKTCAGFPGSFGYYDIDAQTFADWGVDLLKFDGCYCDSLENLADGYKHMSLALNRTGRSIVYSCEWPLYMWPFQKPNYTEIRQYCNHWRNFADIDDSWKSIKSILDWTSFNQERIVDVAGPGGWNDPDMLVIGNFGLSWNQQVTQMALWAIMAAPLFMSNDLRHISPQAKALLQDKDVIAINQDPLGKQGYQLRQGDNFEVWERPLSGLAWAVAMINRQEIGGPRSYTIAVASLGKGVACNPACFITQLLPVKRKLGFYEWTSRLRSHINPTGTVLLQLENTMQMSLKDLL
# miR-21 reporter = miR-21 reporter, rising signal; Potency, µM (doses to about 38.3 µM), for inactives: top-dose reporter change, positive = more light; AID 2288; HeLa miR-21 FLuc reporter, luciferase, 48 h; 340,000 tested, under 10 active; active = well fitted rising curve with a large enough effect; inconclusive = small, poorly fitted or top-dose-only effect; inactive = no such curve, though single readings can be large or run the other way;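 also: % of control where 0% means no effect; miR-21 action dims this reporter so a rising signal means less miR-21 action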
#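 Compounds were titrated across several concentrations (up to approximately 40 uM) and incubated 48 hours with HeLa miR-21-FLuc reporter cells (miR-21 target sequence downstream of FLuc, endogenous miR-21). Readout was firefly luciferase luminescence after lytic detection reagent.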
# The depositor's hits bear a star; ? = inconclusive; . = not tested or not shown; & = joins results of further samples. Some of the compounds tested. The share of hits here may be higher or lower than overall.
SMILES,GLA inh pH 4.5,miR-21 reporter
O=c1cc(-c2ccc(O)cc2)oc2cc(OC3OC(CO)C(O)C(O)[C@H]3O[C@@H]3OC[C@@](O)(CO)C3O)cc(O)c12 (stereo not given in full),-16,.
COC(=O)C1=CO[C@@H](O[C@H]2OC(CO)C(O)C(O)C2O)C2C1CC(O)C2C (stereo not given in full),8,.
C[C@@H](N)C1CCC(C(=O)Nc2ccncc2)CC1 (stereo not given in full),0&-3,.
COc1ccc(S(=O)(=O)N2c3ccc(Cl)cc3[C@](O)(c3ccccc3Cl)[C@@H]2C(=O)N2CCC[C@H]2C(N)=O)cc1OC,-5,.
C=CC1=C(C(=O)O)N2C(=O)C(NC(=O)/C(=N\O)c3csc(N)n3)C2SC1 (stereo not given),-4,.
O=c1[nH]c2cc(C(F)(F)F)c(N3CCOCC3)cc2n(CP(=O)(O)O)c1=O,-13,.
CCCCCCCCCCCCCCC[C@H](O)[C@H](N)CO,-8,.
CCOC(=O)C(CCc1ccccc1)NC(C)C(=O)N1Cc2ccccc2CC1C(=O)O (stereo not given),-8,.
CN(C)CCOC(=O)[C@@H](c1ccccc1)C1(O)CCCC1,9,.
Cc1ccccc1OC[C@H](O)CO,-2,.
CC(=O)C1CCC2C3CC(C)C4=CC(=O)CC[C@@]4(C)C3C(O)C[C@@]12C (stereo not given in full),-14,.
NC(N)=NCCC[C@H](N)C(=O)O,-1&6,.
CCCN[C@@H](C)C(=O)Nc1c(C)csc1C(=O)OC,6,.
C/C=C\C(=O)N(CC)c1ccccc1C,1,.
C=CC1=C(C(=O)O)N2C(=O)[C@@H](NC(=O)C(N=O)c3csc(N)n3)[C@H]2SC1 (stereo not given in full),-5,.
Cc1c(I)c(=O)n(-c2ccccc2)n1C,-4,.
O=C(O)[C@H]1[C@H]2C[C@H]3c4[nH]c5ccccc5c4CCN3C[C@@H]2CC[C@@H]1O,1,.
CC1(C)O[C@@H]2C[C@@H]3[C@H]4C[C@@H](F)C5=CC(=O)C=C[C@]5(C)[C@@]4(F)[C@@H](O)C[C@]3(C)[C@]2(C(=O)CO)O1,-6,.
CCC(=O)O,-3,.
COc1cc(O)c2c(=O)cc(-c3ccc(OC)c(-c4c(O)cc(O)c5c(=O)cc(-c6ccc(O)cc6)oc45)c3)oc2c1,-5,.
CC[C@H](Cc1c(I)cc(I)c(N)c1I)C(=O)O,-5,.
CC(=O)O[C@@]1(C(C)=O)CCC2C3C=C(Cl)C4=CC(=O)C5CC5[C@@]4(C)C3CC[C@]21C (stereo not given in full),4,.
CN(C(=O)CCCOc1ccc2[nH]c(=O)ccc2c1)C1CCCCC1,-4&-2,.
CCC[C@H](N[C@@H](C)C(=O)N1[C@@H]2CCCC[C@H]2C[C@H]1C(=O)O)C(=O)OCC,-1,.
O=C1c2ccc(O)c(O)c2C(=O)c2c(O)ccc(O)c21,4,.

# (cont.)
SMILES,GLA inh pH 4.5,miR-21 reporter
CCN1CCN(CCCNC(=O)c2cc3c(s2)-c2c(C)cccc2OC3)CC1,.,28%
CCCNC(=O)C1CCC(Cn2c(=O)c3sccc3n(CC(=O)NCc3ccccc3)c2=O)CC1 (stereo not given),.,-5%
Cc1ccc(C)c(NC(=O)Cn2cc(C(=O)c3ccco3)c3ccccc32)c1,.,-19%
COc1ccc(CNC(=O)C2CCCN(c3nnc(C)c4c(C)n(-c5ccc(C)cc5)nc34)C2)cc1 (stereo not given),.,2%
O=C(NCc1ccco1)c1ccc2c(c1)N(Cc1cccc(Cl)c1)C(=O)c1ccccc1S2=O (stereo not given),.,-9%
COc1ccc(CCNc2nc(SCc3ccccc3Cl)nc3ccccc23)cc1OC,.,-2%
Cc1[nH]n2c(=O)cc(-c3ccc(Cl)cc3)nc2c1-c1ccccc1,.,?
COc1ccc(CC(=O)NCC(c2cccs2)S(=O)(=O)c2ccc(Cl)cc2)cc1 (stereo not given),.,-3%
COc1cc(C(c2c(C)[nH][nH]c2=O)c2c(C)[nH][nH]c2=O)ccc1OC(=O)c1ccccc1F,.,0%
CCOCCCNC(=O)C(=O)Nc1c2c(nn1-c1ccc(OC)cc1)CSC2,.,-3%
CCc1nnc(NC(=O)CSc2nc3c([nH]c4ccccc43)c(=O)n2-c2ccc(OC)cc2)s1,.,1%
O=C(CC1N=C2c3ccccc3N=C(SCc3ccc(F)cc3)N2C1=O)NC1CCCCC1 (stereo not given),.,0%
COc1ccc(-n2ccn(CC(=O)Nc3ccc(C)c(C)c3)c(=O)c2=O)cc1OC,.,-27%
CCOC(=O)N1CCc2c(sc3c2c(=O)n(Cc2ccccc2)c(=O)n3CC(=O)Nc2ccc(F)cc2)C1,.,12%
